H5N1 CPE = MDCK cell protection from H5N1 avian flu; hit rate 0.07% among 96,000; cytopathic effect, luminescence, 72 h; hits give high values; no value below 0 was filed and about half of the inactive calls have no number; reference of the scale not given here; inhibition, % at 50 µM; in the data active = inhibition above about 25%
Starred values were filed as active, the others as inactive; i = inactive. The list is partial; count on the stated rates, not on these rows.

SMILES | H5N1 CPE
O=C(c1cc2ccccc2oc1=O)N1CCN(c2ccc(N3CCOCC3)nn2)CC1 | i
COc1ccc(C)cc1S(=O)(=O)N(C)CC(=O)Nc1ccccc1 | i
Cc1csc(NC(=O)CSc2nnc(Cc3cccn3C)n2CCc2ccccc2)n1 | i
COc1ccc([C@@H]2[C@H]3CN(C(C)=O)CC=C3C(C#N)=C(N)C2(C#N)C#N)c2ccccc12 | 0.4
Cc1ccccc1CNC(=O)c1ccccc1C | i
Cn1c(Cn2cnc3ccccc32)nnc1SCc1ccccc1 | 2.8
O=C(O)CSCc1nc2ccccc2s1 | 0.5
Cc1nnc(Sc2c(N)n(C)c(=O)n(C)c2=O)s1 | i
CCCOC(=O)c1ccc(OCC(O)CN2CCN(C(=O)c3ccccc3)CC2)cc1 (stereo unspecified) | i
O=C(NC1CCCc2ccccc21)C1CCC(CNc2c(N3CCOCC3)c(=O)c2=O)CC1 (stereo unspecified) | i
CCOc1ccc(CNc2ncnc(N)n2)cc1 | i
CC(OCc1ccccc1)C(NC(=O)OC(C)(C)C)C(=O)NCC1CCCO1 (stereo unspecified) | 0.1
Cc1ccc(NC(=O)C2COc3ccccc3O2)nc1 (stereo unspecified) | i
COc1cc(C(=O)NCc2nnc(SCC(=O)NCc3ccccc3)o2)cc(OC)c1OC | 1.5
COc1ccc(CC(=O)NNC(=S)Nc2ccc(Br)cc2)cc1 | i
COc1ccc(/C=N\N=C2/SC(CC(=O)O)C(=O)N2c2ccc(O)cc2)cc1 (stereo unspecified) | 1.0
Cc1onc(-c2ccccc2)c1-c1nc2ccccc2c(=O)o1 | i
Cc1ccc2c(CN3CCN(CCO)CC3)cc(=O)oc2c1C | 0.2
Cc1ccc(NC(=O)Cc2ncc(C(F)(F)F)cc2Cl)cc1Cl | 0.6
CCOC(=O)/C=C1\SCC(=O)N1CC(=O)NC12CC3CC(CC(C3)C1)C2 | 40*
CCCOC(=O)CSc1nnc(-c2cc(OC)c(OC)c(OC)c2)o1 | 0.5
COC(=O)c1ccc(OCC2c3cc(OC)c(OC)cc3CCN2C(=O)c2ccco2)cc1 (stereo unspecified) | i
O=C1CCCc2ccccc2N1Cc1ccc(Cl)cc1Cl | 1.0
O=C(O)C1CCCN(C(=O)NCc2ccccc2)C1 (stereo unspecified) | 0.1
Cc1cc(C(=O)Nc2cccc(O)c2)c(C)o1 | i

Ordered by molecular weight (ascending): part of the list above
SMILES | H5N1 CPE
Cc1cc(C(=O)Nc2cccc(O)c2)c(C)o1 | i
Cc1nnc(Sc2c(N)n(C)c(=O)n(C)c2=O)s1 | i
O=C1CCCc2ccccc2N1Cc1ccc(Cl)cc1Cl | 1.0
CCCOC(=O)CSc1nnc(-c2cc(OC)c(OC)c(OC)c2)o1 | 0.5
COc1ccc(/C=N\N=C2/SC(CC(=O)O)C(=O)N2c2ccc(O)cc2)cc1 (stereo unspecified) | 1.0
CCCOC(=O)c1ccc(OCC(O)CN2CCN(C(=O)c3ccccc3)CC2)cc1 (stereo unspecified) | i
COC(=O)c1ccc(OCC2c3cc(OC)c(OC)cc3CCN2C(=O)c2ccco2)cc1 (stereo unspecified) | i

Other entries follow.
SMILES | H5N1 CPE
COc1ccc(NC(=O)Nc2ccc(C(=O)N3CCOCC3)cc2)cc1 | i
COc1cc(CNn2cnnc2)ccc1OCC(=O)NC(C)(C)C | i
COc1ccc(C)cc1N(C(=O)CNC(=O)c1ccco1)C(C(=O)NC1CCCC1)c1cccnc1 (stereo unspecified) | 0.4
CCOC(=O)c1ccccc1NC(=O)c1cccc(F)c1 | i
CC(Sc1nc(N(C)C)nc(N2CCOCC2)n1)C(=O)Nc1ccccc1 (stereo unspecified) | 1.1
COc1cccc(OCCn2cc(C(=O)c3ccco3)c3ccccc32)c1 | i
CCOC(=O)c1[nH]c(C)c(C(=O)N2CCN(c3cccc(Cl)c3)CC2)c1C | 0.2
CC(C(=O)Nc1nc2ccccc2[nH]1)N1C(=O)C2CC=CCC2C1=O (stereo unspecified) | 0.3
Cc1cccc(Nc2nc(-c3ccc4c(c3)OCCO4)cs2)c1 | 0.1
Cc1ccc(-c2csc3ncnc(SCC(=O)NCc4ccc5c(c4)OCO5)c23)cc1 | 0.6
COC(=O)c1cc(C)sc1NC(=O)c1cccnc1 | i
CCCCn1c(-c2cc(Cl)ccc2OC)n[nH]c1=S | i
N#C/C(=C(/O)COC(=O)Cc1c[nH]c2ccccc12)c1nc2ccccc2[nH]1 | 0.9
CC(=O)Oc1cc2c(cc1Cl)C1(CC(c3ccccc3Cl)O2)CC(C)(C)NC(=S)N1 (stereo unspecified) | 1.6
O=C(NCC1CCCO1)/C(=C\c1ccco1)NC(=O)c1ccccc1 (stereo unspecified) | 2.0
Cc1ccc(S(=O)(=O)Nc2ccc(NC(=O)CN3CCCCC3)cc2)cc1 | 1.1
COc1ccc(CNC(=O)COc2ccc(S(=O)(=O)NC(C)C)cc2)cc1 | i
CCCCC(=O)Nc1ccc(C(=O)NCCCn2ccnc2)cc1 | i
Cc1ccc(-c2cc(-c3ccc4c(c3)OCO4)c(C#N)c(N)n2)o1 | 2.0
Cn1c(SCC(=O)NCc2ccc3c(c2)OCO3)nnc1C1COc2ccccc2O1 (stereo unspecified) | i
O=C(Nc1cccc(NC(=O)c2ccc(-c3cccc(Br)c3)o2)c1)c1ccco1 | i
Cc1cccc(NC(=O)c2ccccc2OCC(=O)c2ccccc2)c1 | 0.2
CCOCCc1nnc(NC(=O)c2cccc(F)c2)s1 | 9.5
Cc1cc(Nc2cccc(F)c2)n2nc(C)nc2n1 | 0.4
CCOC(=O)N1CCN(c2cc(=O)n(-c3cccc(Br)c3)c(=O)[nH]2)CC1 | 0.8
(list continues)
SMILES | H5N1 CPE
C=CCn1c(SCC(=O)c2c(N)n(C)c(=O)n(C)c2=O)nc2sc(C)c(C)c2c1=O | 5.1
CN(c1ccccc1C(=O)Nc1cccnc1)S(C)(=O)=O | i
CCOC(=O)CNc1c(-c2ccc(Cl)cc2)nc2cnccn12 | i
O=C(CCCN1C(=O)c2ccccc2C1=O)Nc1ccccc1C(=O)N1CCOCC1 | 0.6
C=CCSc1nc(C)c2cc(C)cc(C)c2n1 | 1.7
O=C(CSc1nc2ccccc2c(=O)n1NC(=O)Cc1ccccc1)NCc1ccco1 | i
OC1(c2ccc(F)cc2)CCN(Cc2nnnn2Cc2cccs2)CC1 | 0.9
Cc1cccc(C)c1N1CCN(S(=O)(=O)N2CCOCC2)CC1 | i
CC(=O)NCCn1c(SCC(=O)NCCC(C)C)nc2ccccc2c1=O | 0.1
CCCCN(Cc1cc2cc(OC)ccc2[nH]c1=O)C(=O)c1ccco1 | i
Cc1ccc(C)c(CSc2nnc(-c3ccccn3)n2N)c1 | i
CCOC1CCCCC1NS(=O)(=O)c1ccc(Cl)cc1 (stereo unspecified) | 0.6
COc1cccc(-n2c(SCC(=O)NCCC3=CCCCC3)nc3n[nH]c(C)c3c2=N)c1 | i
O=C(O)c1ccc(CSc2nnc(SCc3ccccc3)s2)cc1 | 0.4
CCn1c(Cn2nnc(-c3ccccc3)n2)nnc1SCC(=O)Nc1cccc(C)c1C | i
Cc1ccc(C(=O)OCC(=O)N2CC(=O)Nc3ccccc32)s1 | i
COC(=O)c1ccc2c(=O)n(C3CCCCC3)c(SCC#N)nc2c1 | i
O=S(=O)(Nc1ccc(N2CCOCC2)cc1)c1ccc(Cl)s1 | i
Fc1ccc(CSc2nc3ccccc3[nH]2)cc1 | i
CCCCNC(=O)CN(CCc1ccccc1)S(C)(=O)=O | i
CCCN(CCC)CCCNC(=O)c1ccc2c(c1)N(CC)C(=O)c1ccccc1S2=O (stereo unspecified) | 0.3
Cc1ccc(C(=O)ON=C2CCN(S(=O)(=O)c3ccccc3)CC2)cc1 | i
CCC(C)[C@@H](C(=O)Nc1ccc2c(c1)OCO2)N1Cc2ccccc2C1=O (stereo partly specified) | 1.6
COC(=O)C(NC(C)=O)(Nc1sc2c(c1C(N)=O)CCCC2)C(F)(F)F (stereo unspecified) | i
CSc1nsc(SCC(=O)Nc2c(C)n(C)n(-c3ccccc3)c2=O)n1 | i
Continuation.
SMILES | H5N1 CPE
CCOc1ccc(NC(=O)C2CCN(S(=O)(=O)c3c(C)n[nH]c3C)CC2)cc1 | 0.3
Cc1ccccc1CCNC(=O)C1CCN(S(=O)(=O)c2ccc(-n3cnnn3)cc2)CC1 | i
CC(C)CC(C(=O)Oc1ccc2c3c(c(=O)oc2c1)CCC3)N1C(=O)c2ccccc2C1=O (stereo unspecified) | 0.1
Cc1ccc(NC(=O)CSc2nnc(CNC(=O)c3c(F)cccc3Cl)o2)cc1 | 1.6
CCOC(=O)C(Cc1c(F)cccc1F)(NC(C)=O)C(=O)OCC | 0.5
O=C(c1ccccc1)c1ccc(Oc2ncccn2)cc1 | 0.8
Cc1cc(C)c2cc(CN(Cc3cccs3)Cc3nnnn3CC3CCCO3)c(=O)[nH]c2c1 (stereo unspecified) | 0.2
Cc1cccc(-n2c(=O)c3c(n4cnnc24)-c2ccccc2CC32CCCCC2)c1 | 2.0
O=C(Nc1ccc(S(=O)(=O)N2CCCC2)cc1)c1cccnc1 | i
CCN(C(=O)CSc1nnc(-c2ccncc2)n1C)C1CCS(=O)(=O)C1 (stereo unspecified) | i
C=CCNCC#CCOc1ccc(OC)cc1 | i
CC1SC(=NC(=O)c2ccco2)NC1=O (stereo unspecified) | 0.5
Cc1nc(N(C)Cc2ccccc2)c2nnn(Cc3ccccc3)c2n1 | i
CC(C)Cn1c(N)c(C(=O)COC(=O)CC23CC4CC(CC(C4)C2)C3)c(=O)n(C)c1=O | i
Cc1ccc(NC(=O)CCn2cccc2)cc1 | 0.3
CCCn1nc2cc(C(=O)NCCc3ccc(C)cc3)ccc2c1OCC | 3.8
CC1CN(C(=S)NC(=O)c2ccc([N+](=O)[O-])cc2)CC(C)O1 (stereo unspecified) | 1.2
CCc1c(C)[nH]c2ccc(C)cc2c1=O | i
CCOc1ccc(C(=O)CCNC(Cc2cnc[nH]2)C(=O)O)cc1 (stereo unspecified) | 1.1
CCn1c2ccccc2c2nnc(SCC(=O)Nc3cc(C)on3)nc21 | i
Cc1cc(C(F)(F)F)nn1Cc1n[nH]c(=S)n1-c1ccc(Cl)cc1 | 0.1
COc1cc(CCC(=O)OCC(=O)Nc2ncc(Cl)cc2Cl)cc(OC)c1OC | 2.0
Cc1cc(C)nc(NS(=O)(=O)c2ccc(NC(=O)c3ccco3)cc2)n1 | 0.0
CCOC(=O)c1c(NC(=O)c2cccnc2)sc(C)c1C | i
CCCCN(CCCC)CCNC(=O)Cc1nc2c(c(=O)[nH]c(=O)n2C)n1C | i

Structural class: those above with a cyano group
SMILES | H5N1 CPE
COc1ccc([C@@H]2[C@H]3CN(C(C)=O)CC=C3C(C#N)=C(N)C2(C#N)C#N)c2ccccc12 | 0.4
N#C/C(=C(/O)COC(=O)Cc1c[nH]c2ccccc12)c1nc2ccccc2[nH]1 | 0.9
Cc1ccc(-c2cc(-c3ccc4c(c3)OCO4)c(C#N)c(N)n2)o1 | 2.0
COC(=O)c1ccc2c(=O)n(C3CCCCC3)c(SCC#N)nc2c1 | i

Later entries.
SMILES | H5N1 CPE
Cc1ccc(NC(=S)N2CCCC(c3nc4ccc(C)cc4[nH]3)C2)c(C)c1 (stereo unspecified) | 1.4
CC1CN(C(=O)c2cccc(C(=O)N3CC(C)OC(C)C3)c2)CC(C)O1 (stereo unspecified) | 0.8
CCn1ncc(C2=NOC(C(=O)N3CCN(c4ccccc4)CC3)C2)c1C (stereo unspecified) | i
COc1ccccc1C1/C(=C(/O)c2ccc(Cl)cc2)C(=O)C(=O)N1CCN1CCOCC1 (stereo unspecified) | i
COc1ccc(C(=O)COC(=O)CCn2nnc(-c3cccs3)n2)cc1 | 0.3
Cc1cc(C(=O)Nc2ccccn2)no1 | i
O=C(CSc1nnc(-c2ccncc2)n1Cc1ccccc1)Nc1nccs1 | 0.8
CCOc1cc(C2NN=C(c3ccccc3)S2)ccc1OCc1ccc(F)cc1 (stereo unspecified) | 0.4
Cc1ccc(S(=O)(=O)c2c(COC(=O)c3cccc(Cl)c3)c(-c3ccccc3)nn2C)cc1 | 0.5
O=C(c1cc2c(s1)CCCCC2)N1CCN(c2ncccn2)CC1 | 0.7
O=[N+]([O-])c1cccnc1N1CCCCC1 | i
Cc1ccccc1NC(=S)NC(NC(=O)COc1ccccc1)C(Cl)(Cl)Cl (stereo unspecified) | 0.7
N#Cc1c(N)nc(SCC(=O)OCc2ccccc2)c(C#N)c1-c1ccco1 | i
CCOC(=O)CC1=NS(=O)(=O)c2ccccc2N1 | 0.2
CCOC(=O)C(C(=O)OCC)=C1OC(=O)c2ccccc21 | i
COc1ccccc1/C=C/C(=O)NC(=S)N(C)C1CCCCC1 | 0.1
Cc1ccc2nc(/C(C#N)=C\c3ccc([N+](=O)[O-])o3)[nH]c2c1 | i
C=CCOC(=O)/C(=C/c1ccco1)NC(=O)/C=C/c1ccccc1 | 1.1
O=C(O)c1cccnc1SC1CC(=O)N(CCc2ccccc2)C1=O (stereo unspecified) | 1.0
CCCc1cc(=O)[nH]c(SCC(=O)c2cc(C)n(C3CC3)c2C)n1 | 1.6
CCN(CC)CC(C)CNC(=O)CC(C(=O)N1CCc2ccccc21)n1ccnc1 (stereo unspecified) | i
CCc1ccccc1NC(=O)/C(=C/c1ccccc1)c1ccccc1 | 0.9
Clc1ccc(Oc2cccc(/C=N/n3cnnc3)c2)cc1 | i
CC(C)(C)C(=O)Nc1ccc2oc(-c3cc(F)c(F)cc3Cl)nc2c1 | i
CN(C(=O)c1cccc(C#N)c1)c1nnc(C2CCOC2)s1 (stereo unspecified) | 0.7
CCCn1nnc(NC(=O)c2ccccc2Br)n1 | i

Taken from the listing for reference:
SMILES | H5N1 CPE
CCOC(=O)C(C(=O)OCC)=C1OC(=O)c2ccccc21 | i
COc1ccccc1/C=C/C(=O)NC(=S)N(C)C1CCCCC1 | 0.1

Compound activity: PubChem BioAssay, SRMLSC
